MgrA DNA FP – S. aureus MgrA-DNA binding modulation. fluorescence polarization. inhibition, %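 (about 10 µg/mL by stock and volumes)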. 84,000 tested, 0.13% active. AID 602314;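 active means above 50% in either of two replicates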;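 further: 0% = protein plus DNA without compound and 100% = DNA alone without protein; higher means less MgrA bound to DNA so lower polarization; one replicate is shown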
S aureus helic – S. aureus DNA helicase inhibition; purified S. aureus helicase, fluorescence unwinding assay; about half of the hits fall short of the stated cut; inhibition, %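 (tested at about 80 µM)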; 120,000 tested, 0.05% active; AID 485395;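 active means both duplicates at 50% or more, or one of them with a favoured structure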;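 further: 0% = mean of negative control wells and 100% = mean of positive control wells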
Numbers without * were called inactive; x = not tested or not shown; & = joins results of further samples.

MgrA DNA FP	S aureus helic	canonical_smiles
-4.2	-2	O=C(C1=C(O)C(=O)N(CCc2ccccc2)C1c1ccncc1)c1cc2ccccc2o1 (configuration not stated)
0.7	3	O=C(c1ccccc1)c1cccn1CC(=O)N1CCCC1
-0.1	9	C=CCNC(=O)/C(=C/c1ccccc1)c1ccccc1
6.1	-10	Cc1c(NC(=O)c2ccccc2)c(=O)n(-c2ccccc2)n1C
x	-5	CCOC(=O)c1oc2ccc(Br)cc2c1COC(=O)Cc1n[nH]c(=O)c2ccccc12
x	-2	CCNC(=S)N/N=C/c1ccc2ncccc2c1
x	1	O=C1Cc2ccccc2N1
x	7	Cc1nnc2n(-c3ccccc3)c(=O)c3ccccc3n12
x	-19	CCCC12CN3CC(CCC)(CN(C1)C3c1c[nH]c3ccccc13)C2=O (configuration not stated)
1.8	-10	CCCCc1cc(=O)oc2cc(OC(=O)c3ccco3)ccc12
x	-13	CN1/C(=C\C(=O)Cn2cc(S(=O)(=O)N3CCCC3)ccc2=O)C(C)(C)c2ccccc21
0.3	7	CC(O)CN(CC(C)O)CC1CC=CCC1 (configuration not stated)
8.0	12	Oc1ccc(CNc2cccc(C(F)(F)F)c2)c2cccnc12
4.5	12	COCc1nnc(NC(=O)C2CC(=O)N(c3ccc(C)cc3)C2)s1 (configuration not stated)
-1.2	3	CC1CC(C)CN(CC(=O)Nc2ccccc2C(N)=O)C1 (configuration not stated)
-2.1	x	O=C1NC(=O)N(c2ccccc2)C(=O)/C1=C\c1ccc(-c2ccccc2C(=O)O)o1
x	-3	COc1ccc(-c2nc(SC(C(=O)NC(N)=O)C(C)C)n[nH]2)cc1 (configuration not stated)
-1.0	-17	CCOC(=O)c1c(-c2ccccc2)csc1NC(=O)C1CC1
-0.8	x	Cc1ccc(C)n1-n1cnnc1
4.7	8	CCOC(=O)NC1CCS(=O)(=O)C1 (configuration not stated)
x	-14	O=C(Nc1nc2ccccc2[nH]1)c1ccccc1
2.9	6	CCOc1ccccc1-n1c(SCC(=O)c2ccc3c(c2)OCCO3)nc(O)cc1=O
x	-15	Cc1ccccc1NC(=O)CC(NCc1ccccc1)C(=O)O (configuration not stated)
x	10	CC(=O)OC1COC(n2ccc3ccccc32)C(OC(C)=O)C1OC(C)=O (configuration not stated)
0.5	-5	CCCN(C(=O)c1ccc2c(=O)n3c(nc2c1)CCCC3)c1ccc(Cl)c(Cl)c1
2.5	x	COc1ccc(-c2csc(-c3cc(C)on3)n2)cc1
x	9	O=C(COC(=O)c1cccc(-n2cccc2)c1)NCc1ccccc1
0.6	13	O=C(NCC1CCN(C2CCCC2)C1)c1cnn2ccccc12 (configuration not stated)
-1.9&-5.3	17	CC(N)C12CC3CC(CC(C3)C1)C2 (configuration not stated)
x	25	CCOc1cc2c(cc1OCC)C(CC(=O)O)N(C(=O)NCc1ccccc1)CC2 (configuration not stated)
-1.4	-4	Cc1ccc(-n2c(C)c3c(C)nnc(C)c3c2C)cc1
1.3	3	O=C(Nc1cccc(-c2noc(-c3ccccn3)n2)c1)c1ccco1
x	13	O=C(Oc1coc(CSc2ncccn2)cc1=O)c1ccc(S(=O)(=O)N2CCCC2)cc1
x	5	CCCSc1ncccc1C(=O)Nc1c(-c2ccccc2)noc1C
x	5	CN(C)C(=O)C(Sc1nnc(-c2ccccc2F)n1C)c1ccccc1 (configuration not stated)
x	8	Cc1cc(C)nc(N(C#N)CC(=O)N2c3ccccc3CCc3ccccc32)n1
1.1	10	Cc1oc2c(c1C(=O)NC1CCCC1)C(=O)c1ccccc1C2=O
0.9	x	COc1ccc(-c2cnn3c(Cl)c(CCCl)c(C)nc23)cc1OC
x	-7	CC(C)CC(=O)Nc1nonc1-c1ccccc1
-2.0	-1	CCOC(=O)c1c(C)oc2ccc(OC(=O)N3CCOCC3)cc12
-1.1	19	CCC1CCCCN1CCCNC(=O)c1cc2c(s1)CSC2 (configuration not stated)
-0.8	4	CCN1C=C(C(=O)OC)C(c2ccc(C(C)C)cc2)C(C(=O)OC)=C1
x	-7	CN(Cc1ccccc1)Cn1nc(-c2ccccc2)oc1=S
1.6	-13	CN(C)CCNC(=O)Cn1ncc2c(Cl)cccc21
x	-20	N#Cc1ccsc1NC(=O)Cn1cnc2sccc2c1=O
x	-6	Cc1cc(=O)[nH]c2c1cnn2C1CCCCC1
-2.6	-13	CN(C(=O)COc1cccc(Br)c1)c1ccccc1
-3.8	x	O=C(O)CCC(=O)c1ccc2c(c1)CCC2
0.6	14	O=C1CSc2ccc(C(=O)NCCCN3CCCCC3)cc2N1
x	1	Cc1ccc(NNC(=O)c2ccno2)cc1C

(list continues)
MgrA DNA FP	S aureus helic	canonical_smiles
-1.6	x	O=C(Nc1ccccc1)C(C(=O)Nc1ccccc1)c1ccccc1
1.8	x	CCN(CC)C(=O)CN(C#N)c1nc(N(C)C)nc(N(C)C)n1
-1.8	0	O=C1NC(=O)/C(=C\c2ccccc2)N1
x	-1	Cc1ccc(NC(=O)CC2C(=O)NC3CCCCC3N2C(=O)c2ccc(F)cc2)cc1C (configuration not stated)
1.1	x	CC(C)(C)S(=O)(=O)Cc1nc(-c2cccc(F)c2)cs1
-0.6	x	Cc1ccc(CSc2ncccc2C(F)(F)F)cc1
0.7	8	NC(=O)c1ccc(-c2cccc(C(F)(F)F)c2)o1
x	-2	CCOC(=O)c1c(C)oc(N)c1C(=O)OCC
6.3	x	O=C(CSc1ccccc1[N+](=O)[O-])NNC(=S)Nc1cccc(C(F)(F)F)c1
-1.4	-2	O=C(c1ccc(CSc2ncccn2)cc1)N1CCOCC1
0.2	x	CSc1cc(-c2nccs2)nn1C(C)=O
3.6	-28	c1ccc(CSCc2cn3ccsc3n2)cc1
-0.2	x	CC(C#N)(Nc1ccccc1)c1ccncc1 (configuration not stated)
x	-16	COc1ccc(CC(=O)NCCS(=O)(=O)N2CCN(c3ccc(OC)cc3)CC2)cc1
0.4	9	O=C(C1CC(=O)N(C2CCCCC2)C1)N1CCN(c2cccc(C(F)(F)F)c2)CC1 (configuration not stated)
0.7	-13	CN1CCN(c2ccc(NC(=O)CC34CC5CC(CC(C5)C3)C4)cc2)CC1
-1.3	-13	COc1ccc(CCNC(=O)CSCc2ccc(Cl)cc2)cc1OC
14	8	CCCCCOc1ccc(C(=O)CCN2CCOCC2)cc1
-2.0	x	Cn1cnc(S(=O)(=O)NCc2c(Cl)cccc2Oc2ccccc2)c1
0.2	x	CCC(C)[C@@H](CO[C@@H](Cc1ccccc1)C(=O)N[C@@H](CCS(C)(=O)=O)C(=O)OC(C)C)NC[C@@H](N)CS (some centres not stated)
0.3	11	COc1ccc(C2OC(=O)CC2C(=O)NC(C)C)cc1 (configuration not stated)
x	-18	CCc1ccc(/C=C2\SC(=S)N(CCC(=O)NCCCN3CCOCC3)C2=O)cc1
0.6	-2	CC(C)Nc1nc(NC(C)C)nc(N(C)C(N)=O)n1
-2.4	-18	Cc1ccccc1N=Cc1ccc(N(C)C)cc1
x	-58	COC(=O)c1ccc(/C=N/n2c(-c3ccco3)csc2=NC2CCCCC2)cc1

Nothing new here: entries from further up.
MgrA DNA FP	S aureus helic	canonical_smiles
-1.6	x	O=C(Nc1ccccc1)C(C(=O)Nc1ccccc1)c1ccccc1
1.8	x	CCN(CC)C(=O)CN(C#N)c1nc(N(C)C)nc(N(C)C)n1
-1.8	0	O=C1NC(=O)/C(=C\c2ccccc2)N1
x	-1	Cc1ccc(NC(=O)CC2C(=O)NC3CCCCC3N2C(=O)c2ccc(F)cc2)cc1C (configuration not stated)
1.1	x	CC(C)(C)S(=O)(=O)Cc1nc(-c2cccc(F)c2)cs1
-0.6	x	Cc1ccc(CSc2ncccc2C(F)(F)F)cc1
0.7	8	NC(=O)c1ccc(-c2cccc(C(F)(F)F)c2)o1
x	-2	CCOC(=O)c1c(C)oc(N)c1C(=O)OCC
6.3	x	O=C(CSc1ccccc1[N+](=O)[O-])NNC(=S)Nc1cccc(C(F)(F)F)c1
-1.4	-2	O=C(c1ccc(CSc2ncccn2)cc1)N1CCOCC1
0.2	x	CSc1cc(-c2nccs2)nn1C(C)=O
3.6	-28	c1ccc(CSCc2cn3ccsc3n2)cc1
-0.2	x	CC(C#N)(Nc1ccccc1)c1ccncc1 (configuration not stated)
x	-16	COc1ccc(CC(=O)NCCS(=O)(=O)N2CCN(c3ccc(OC)cc3)CC2)cc1
0.4	9	O=C(C1CC(=O)N(C2CCCCC2)C1)N1CCN(c2cccc(C(F)(F)F)c2)CC1 (configuration not stated)
0.7	-13	CN1CCN(c2ccc(NC(=O)CC34CC5CC(CC(C5)C3)C4)cc2)CC1
-1.3	-13	COc1ccc(CCNC(=O)CSCc2ccc(Cl)cc2)cc1OC
14	8	CCCCCOc1ccc(C(=O)CCN2CCOCC2)cc1

Continued:
MgrA DNA FP	S aureus helic	canonical_smiles
0.8	x	CC1=C(C(=O)OCC2CCCO2)C(c2cc3c(cc2Br)OCO3)C2=C(CC(C)(C)CC2=O)N1 (configuration not stated)
x	-30	O=C(O)C1C2C=CC3(CN(CCCN4CCOCC4)C(=O)C13)O2 (configuration not stated)
x	1	CCn1c(SCC(=O)NC2CCCC2)nnc1-c1c[nH]c2ccccc12
-5.5	12	COc1ccc(Cn2nnnc2C(c2ccccc2)N2CCC(C)CC2)cc1 (configuration not stated)
x	-7	NC(=O)c1ccsc1NC(=O)[C@H](Cc1ccccc1)NC(=O)c1ccco1
x	4	Cc1nnc(NC(=O)CSc2cn(Cc3ccccc3)c3ccccc23)s1
x	7	O=C1Nc2cc(C(=O)N3CCCC3)ccc2NC1CS(=O)(=O)Cc1cccc(Br)c1 (configuration not stated)
x	27	Cc1cc(=O)oc2c(CN(C)C3CCCCC3)c(O)ccc12
-1.0	x	COc1ccc(N2C(=O)C3C4C=CC(C3C2=O)C2C(=O)N(c3ccc(OC)cc3)C(=O)C42)cc1 (configuration not stated)
13	4	Cc1cc(N2Cc3ccccc3C2)ccc1/C=C1/C(=O)NC(=O)N(C2CCCCC2)C1=O
2.8	-1	CC1=CC(C)(C)N(S(=O)(=O)c2ccc(C)cc2)c2ccccc21
x	7	O=C(COC(=O)c1cc(=O)[nH]c2ccccc12)c1ccccc1
-4.5	0	O=c1cc(O)c2sc3nc(-c4cccnc4)c4c(c3c2[nH]1)CCCC4
x	-13	N#Cc1cn(Cc2ccccc2)c(=O)[nH]c1=O
x	2	CCOC(=O)N1CCN(C(=O)CSc2ccc(-c3ccccc3)nn2)CC1
-1.1	x	C=CCOc1ccc(Br)cc1/C=N/O
x	-6	CCOC(=O)c1c(/N=C/N(C)C)sc(C)c1C
x	32	Cc1nc2ccccc2n1CCOc1ccc(Cl)cc1
-0.7	6	CCCc1oc2c(cc(NS(=O)(=O)c3ccc(CC)cc3)c3ccccc32)c1C(=O)OCC
x	16	CCCCOC(=O)c1sc2scc(C)c2c1C
1.5	22	CCc1c(C(=O)NC2CCCC2)csc1C
-1.2	19	COc1ccc2sc(N3C(=O)C4CC=C(C)CC4C3=O)nc2c1 (configuration not stated)
x	1	O=C(NCc1ccccc1Cl)C1CCN(c2nc3ccccc3o2)CC1
x	-10	CCCCc1nnc(NC(=O)Cn2c(COc3ccccc3)nc3ccccc32)s1
-0.9	24	Cc1ccccc1N1CCn2c1nc1c2c(=O)n(C)c(=O)n1C
41	-11	c1cnc2c(c1)NC1(CCCCC1)N2
-0.8	x	O=c1c2ccccc2cnn1-c1ccc(F)cc1
-0.8	x	CC(=O)N(C)c1ccc(F)cc1F
3.2	x	CN(C)c1ccc(NC(=O)CC(CC(=O)O)c2ccccc2)cc1 (configuration not stated)
x	-23	CCC(=O)NCc1nc2ccccc2n1C
0.0	x	Cn1c(C(C)(C)C)nc(N)nc1=O
x	10	Cc1oc(-c2ccccc2)nc1C(=O)OCC(=O)C12CC3CC(CC(C3)C1)C2
-2.0	x	Cc1nn(Cc2nc(C(C)(C)C)cs2)c(C)c1Br
x	-2	CCC(c1nnc(SCc2nc3sc4c(c3c(=O)[nH]2)CCC4)n1Cc1ccccc1)N(C)C (configuration not stated)
x	28	Cc1nn(CCCC(=O)NC(C)C)c(=O)c2c1sc1ccccc12
x	-1	COc1ccc(S(=O)(=O)NCc2cn3cccc(C)c3n2)cc1OC
x	9	COc1ccc(CCNC(=O)CSc2nc(-c3cccs3)nc3c2c(=O)n(C)c(=O)n3C)cc1OC
0.3	22	CS(=O)(=O)N1CCN(c2ccccc2F)CC1
2.0	x	CCCS(=O)(=O)C1=C(N)OC(c2ccccc2)=C(C#N)C1c1ccc(Cl)cc1 (configuration not stated)
x	-7	Cc1cc(C(=O)N/N=C2\CCCc3ccccc32)c(C)o1
x	-12	N#CC(C#N)=Cc1ccc(OC(=O)c2ccccn2)cc1
x	3	Cc1ccc(CNCc2ccc3c(c2)OCO3)cc1
x	8	c1ccc(Nc2c(-c3ccc(N4CCOCC4)cc3)nc3cnccn23)cc1
-1.1	x	Oc1cc(OCc2cccc(C(F)(F)F)c2)ccc1-c1ccn[nH]1
x	21	COc1ccc(NS(=O)(=O)c2ccc(Oc3ncccn3)cc2)cc1
0.5	11	CC1(C)CC(=O)C(C=NCCN2CCN(C(=O)Nc3ccc(Cl)c(Cl)c3)CC2)=C(O)C1
2.2	-16	CC(=O)Nc1ccc(C(=O)Nc2ccc(OCC(=O)O)cc2)cc1
x	-2	COc1ccc(Br)cc1CN(C)CN1C(=O)C2CC=CCC2C1=O (configuration not stated)
x	30	C1CN(C2OCCOC2N2CCOCC2)CCO1 (configuration not stated)
x	-16	COC(=O)c1c(C)oc(C)c1S(=O)(=O)NCCSCc1c(F)cccc1Cl

Complete entries, quoted from the list. Values in the order: MgrA DNA FP, S aureus helic
CC(=O)Nc1ccc(C(=O)Nc2ccc(OCC(=O)O)cc2)cc1 across the screens: 2.2, -16
Oc1cc(OCc2cccc(C(F)(F)F)c2)ccc1-c1ccn[nH]1 across the screens: -1.1, x

Some of the compounds tested. The share of hits here may be higher or lower than overall.
